LT uptake inh = qHTS Assay for Anthrax Lethal Toxin Internalization | Cells, anthrax lethal toxin internalization, FRET ratio (460/530) | Potency, µM (top dose mostly 40 µM), without a hit: at the top dose activity change, negative = inhibition, usual class: inhibitors | actives 0.67% (n = 70,000) | AID 912, 2007; active = well fitted falling ratio curve with the 530 nm signal flat; inconclusive = other ratio curves, or a change in one channel alone; inactive = flat curves in the ratio and both channels; the % refers to the ratio; note: % is set by controls: 0 for no effect and ±100 for the full control effect; nearly all actives have a fitted effect of over 50% in size; tested in ME-180 cells; beta-lactamase reporter
Prx2 Sm inh = Schistosoma Mansoni Peroxiredoxins (Prx2) | Schistosoma mansoni peroxiredoxin 2 (Prx2) | S. mansoni Prx2 activity coupled to TGR/GSH (TGR is thioredoxin glutathione reductase), NADPH fluorescence loss, qHTS; some inactives read as strong as hits | Potency, µM | actives 0.07% (n = 65,000); active means full or partial inhibition curve with a strong effect at the top dose; inconclusive means weaker partial or single-point curve; inactive means no accepted curve; note: series up to 57 µM; many of its hits are not listed in these tables
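qHTS, coupled TGR/Prx2 format; 15 min compound preincubation at RT; reaction started with H2O2 (2.5 mM aliquot); kinetic NADPH fluorescence decrease, ex 365/em 450 nm.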
* = called active by the depositor; ? = inconclusive; nt = not tested or not shown; [ ] = another dose, or the depositor's remark. Potency is the fitted concentration of half-maximal effect. This is a subset, so the mix of outcomes need not match the whole.

Values run as follows: LT uptake inh, Prx2 Sm inh
Nc1c(-c2ccccc2)n[nH]c1-c1ccccc1
  9.5%, >57
COc1ccc(CCNS(=O)(=O)c2ccc3c(c2)CCN3C(=O)CCC(=O)O)cc1OC
  ?, >57
OC(COCc1ccccc1)CN1CCN(c2ccccc2F)CC1 (centres undefined)
  -9.0%, >57
O=C(NC1CCCCC1)NC1CC2CCC(C1)N2C(=O)NCc1ccccc1 (centres undefined)
  9.8%, >57
C=C(C)Cn1c(N2CCN(CC)CC2)nc2c1c(=O)[nH]c(=O)n2C
  0.8%, >57
CC(=O)N1CCc2cc(Br)cc(S(=O)(=O)N3CCN(C(=O)c4ccco4)CC3)c21
  14.9%, >57
CCOC(=O)C(CCc1nnc(N)s1)C(=O)OCC
  -4.0%, >57
Cc1cccc(S(=O)(=O)Nc2cccc(-c3cn4ccsc4n3)c2)c1
  -1.6%, >57
N#CCC(=O)Nc1ncn(Cc2ccccc2Cl)n1
  -8.3%, >57
COc1ccc(-c2cc3ccccc3n2CC(O)Cn2nc(C)cc2C)cc1 (centres undefined)
  -7.5%, >57
CCCC(=O)Nc1ccc(NC(=O)c2cccs2)cn1
  -9.4%, >57
CCOC(=O)N1CCC(NC(=O)c2sc(-n3cccc3)nc2C)CC1
  -3.9%, nt
COc1cc(CNc2ccc3[nH]c(=O)[nH]c3c2)ccc1OCC(=O)NC(C)(C)C
  -8.2%, >57
S=C(NC1CCCCC1)NC1CCCCC1
  -7.7%, nt
CCC1S/C(=C(\C#N)C(=O)NCc2ccco2)N(c2ccc(Br)cc2)C1=O (centres undefined)
  -11.8%, >57
CCOC(=O)c1[nH]c2ccc(F)cc2c1NC(=O)C(C)N1CCc2cc(OC)c(OC)cc2C1 (centres undefined)
  -15.9%, >57
CCOc1ccc(N2C(=O)c3ccccc3C2O)cc1 (centres undefined)
  -4.7%, >57
CCCn1nnc(NC(=O)c2cc3ccccc3o2)n1
  11.9%, >57
Cc1ccc(S(=O)(=O)Cc2ccc(C(=O)N3CCCCCC3)o2)cc1
  -7.7%, >57
CC1=C(C(=O)NCCN2CCN(C)CC2)C2(CCC(C)CC2)OC1=O (centres undefined)
  -3.6%, >57
O=C(NCc1cccs1)c1ccc(Cl)s1
  -2.3%, >57
Cc1ccc(C(=O)CSc2nc3ccccc3c(=O)n2N)o1
  -14.7%, >57
COc1ccc(C)cc1S(=O)(=O)N(C)CC(=O)Nc1ccc2c(c1)OCO2
  -9.0%, >57
COC(=O)[C@@]1(Cc2ccc(F)cc2)[C@H]2c3cc(C(=O)N(C)C)n(CCCNc4ccc(C(F)(F)F)cc4Cl)c3C[C@H]2CN1C(=O)c1ccccc1
  -12.6%, >57
CCCCN(CC)CCNc1c(N2CCN(C(=O)OCC)CC2)c(=O)c1=O
  5.3%, >57
c1ccc(Nc2n[nH]nc2-c2ccccc2)cc1
  ?, nt
COc1ccccc1Nc1nc(N)nc(CN2CCN(c3ccccc3F)CC2)n1
  nt, >57
O=C(Nc1ccccc1)c1ccc(S(=O)(=O)N(CCO)CCO)cc1
  0.6%, >57
CCOc1ccc(N(CC(=O)Nc2ccc(C)c(C)c2)S(=O)(=O)c2c(C)noc2C)cc1
  ?, nt
CCCCCc1nnc(NC(=O)OCCC)s1
  -10.6%, nt
COc1cc(OC)cc(C(=O)N2CCC(n3c(C)nc4cc(F)ccc43)CC2)c1
  15.5%, >57
O=C(CSc1nnnn1C1CCCC1)Nc1cccc(NC(=O)c2ccco2)c1
  1.7%, >57
COCCn1c(Sc2nc(C)cs2)nc2c1c(=O)[nH]c(=O)n2C
  -3.0%, >57
CN(C)c1ccccc1CN1CCCN(Cc2ccccc2N(C)C)C1c1ccncc1
  -28.9%[8 µM], >57
COc1cc(NC(=O)C2CCN(S(=O)(=O)c3cccc4nonc34)CC2)cc(OC)c1
  ?, >57
Cc1cccc(C)c1NC(=O)CCCSc1nnnn1C
  0.5%, >57
Cc1nnc(SCC(=O)Nc2sccc2C(N)=O)n1Cc1ccccc1
  -5.7%, >57
CC(=O)Nc1ccc(S(=O)(=O)Nc2cc(C)c(-n3nc4ccccc4n3)cc2O)cc1
  nt, >57
CCOc1ccc(N(CC(=O)N2CC=C(c3ccccc3)CC2)S(=O)(=O)c2c(C)noc2C)cc1
  ?, >57
Cc1ccc(S(=O)(=O)NCCN(CCNS(=O)(=O)c2ccc(C)cc2)S(C)(=O)=O)cc1
  -7.2%, >57
COc1ccccc1NC(=O)C1=C(C)NC(SCC(=O)c2ccccc2)=C(C#N)C1c1ccco1 (centres undefined)
  -20.5%, >57
Cc1cc(=O)n(C)c(=O)n1CCCNc1ccccc1
  -0.3%, >57
C#CCCCO/N=C1/C[C@@H](O)[C@@H](O)[C@@H]2[C@@H]3C(=O)N([C@@H](C)c4ccccc4)C(=O)[C@H]3CC[C@@H]12
  -6.7%[8 µM], nt
CC(C)=NO[C@@H](C)CN1CCCc2nc(C)c(C)cc21
  8.0%[8 µM], nt
c1ccc2c(c1)NC1(CCCCC1)n1c-2nc2ccccc21
  ?, >57
CCN(CC)S(=O)(=O)c1ccc(C(=O)NCCc2cc3c(OC)ccc(OC)c3[nH]c2=O)cc1
  4.7%, >57
CC1CCN(S(=O)(=O)c2ccc(NC(=O)c3cccs3)cc2)CC1
  ?, nt
O=C(NCCC1=CCCCC1)C1CCCN(S(=O)(=O)c2ccccc2)C1 (centres undefined)
  4.1%, >57
CC(C)C(NC(=O)CC12CC3CC(CC(C3)C1)C2)C(=O)O (centres undefined)
  11.1%, >57
Cc1ccc(Cn2nnc(C(=O)Nc3cccc(C)c3C)c2N)cc1
  -23.5%, >57
O=C(CSc1nnc2scc(-c3ccccc3)n12)NCc1ccco1
  0.4%, >57
O=C(OCCN1CCCCC1)c1ccccc1Cl
  -14.8%, >57
O=C(Cn1cnc2ccccc2c1=O)NCCC(=O)N1CCN(Cc2ccccc2)CC1
  5.4%, >57
O=C1NC(=O)N(C2CCCCC2)C(=O)C1C1c2ccccc2C(=O)N1Cc1ccccc1 (centres undefined)
  -3.4%, >57
CN(C)c1ncc2nc(-c3ccccc3)c(=O)n(C[C@H]3CCCO3)c2n1
  ?, >57
CSCCC(NC(=O)c1ccccc1)C(=O)NCc1ccco1 (centres undefined)
  nt, >57
Cn1cc(S(=O)(=O)N2CCN(c3cccc(C(F)(F)F)c3)CC2)c(=O)n(C)c1=O
  12.5%, >57
C#C[C@]1(O)CC[C@@H]2[C@H]3CCC4=CCCC[C@@H]4[C@@H]3CC[C@@]21C
  ?, >57
COc1ccc(N2CCN(C(=O)c3ccc4nc(N5CCCCC5)sc4c3)CC2)cc1
  -9.4%, >57
O=C(Nc1nc(-c2cccs2)cs1)c1cccc(S(=O)(=O)N2CCCCCC2)c1
  ?, >57

Looked up by structure from the entries so far:
Values run as follows: LT uptake inh, Prx2 Sm inh
C#C[C@]1(O)CC[C@@H]2[C@H]3CCC4=CCCC[C@@H]4[C@@H]3CC[C@@]21C
  ?, >57
Cc1cc(=O)n(C)c(=O)n1CCCNc1ccccc1
  -0.3%, >57
O=C(CSc1nnc2scc(-c3ccccc3)n12)NCc1ccco1
  0.4%, >57

Continuation.
Values run as follows: LT uptake inh, Prx2 Sm inh
COc1ccc(Br)c(C(=O)Nn2c(C)nc3ccccc3c2=O)c1
  -2.8%, >57
CC(C)n1c(NCc2cccs2)nc2ccccc21
  5.3%, >57
Cc1nc2nc[nH]n2c(=O)c1NS(C)(=O)=O
  -15.8%, >57
CCCc1[nH]nc2c1C(c1ccccc1OC)C(C#N)=C(N)O2 (centres undefined)
  9.2%, >57
c1ccn2c(c1)nc1c2nc2ccccn21
  ?, nt
CCOC(=O)c1c(C)n(COCCO)c2ccc(O)cc12
  ?, >57
Cc1ccc(-c2nnn(CC(=O)NCCc3ccc4c(c3)OCO4)n2)o1
  -6.4%, >57
O=C(COc1ccc(S(=O)(=O)N2CCCCC2)cc1)N1CCCCCC1
  19.8%, >57
Cc1cccc(C2=NCC(=O)N(CC(=O)NCc3ccco3)c3sc4c(c32)CCCC4)c1
  ?, >57
O=S(=O)(Nc1ccc(-c2nc3cccnc3s2)cc1)c1cccs1
  ?, >57
CCCCNc1cc(=O)n(C)c(=O)[nH]1
  6.1%, >57
CCOC(=O)C(NC(=O)c1ccc(OC)cc1)(Nc1cc(C)on1)C(F)(F)F (centres undefined)
  7.8%, >57
Cc1cccn2c(N)c(-c3ccccc3)nc12
  ?, >57
CC(=O)c1c(C)nc2ccccn12
  29.6%, >57
COc1ccccc1NC(=O)Nc1ccnn1C1CCCCC1
  3.8%, >57
COc1ccc(Br)cc1S(=O)(=O)N1CC(C)OC(C)C1 (centres undefined)
  -1.8%, >57
CN1CCN(c2ncc3nc(-c4ccc(Cl)cc4)c(=O)n(CCC#N)c3n2)CC1
  ?, >57
Cc1ccc2cc(CN(CC3CCCO3)S(=O)(=O)c3c(C)ccc4nsnc34)c(=O)[nH]c2c1 (centres undefined)
  9.8%, >57
O=S(=O)(Nc1nccs1)c1ccc2c(c1)OCCO2
  3.9%, >57
Cc1c(C(=O)O)[nH]c2c1C(=O)CC(c1ccc(Cl)cc1)C2 (centres undefined)
  5.9%, >57
CN(CC(=O)Nc1ccc(F)c(Cl)c1)S(=O)(=O)c1cccc2nsnc12
  -10.2%, >57
CC1CCC(N2CCN(S(C)(=O)=O)CC2)CC1 (centres undefined)
  -10.8%, >57
O=C(O)Cc1ccc([N+](=O)[O-])cc1[N+](=O)[O-]
  -2.0%[8 µM], >57
COCCCN1C(=O)C(=O)/C(=C(/O)c2ccc(OCC(C)C)cc2C)C1c1cccnc1 (centres undefined)
  -6.8%, >57
Cc1onc(-c2ccccc2)c1C(=O)NCC1CCCO1 (centres undefined)
  -3.0%, >57
COc1ccc(-c2noc(CCC(=O)NCCCN3CCC(C)CC3)n2)cc1
  8.6%, >57
CCOc1cc(NC(=O)c2ccco2)c(OCC)cc1NC(=O)CCc1ccc(OC)cc1
  -6.8%, >57
N#Cc1cc2c(=O)n3ccccc3nc2n(CCN2CCOCC2)c1=O
  3.1%, >57
CCCOc1ccc(C2C(C(=O)OC)=C(C)N=C3SCCC(=O)N32)cc1OCC (centres undefined)
  0.5%, >57
CCOC(=O)c1cnc(SCC(=O)N2CCc3ccccc32)nc1N
  -3.3%, nt
CCCN(CCC)CCSc1nc(O)c(C(C)C)c(=O)[nH]1
  ?, >57
COCCn1c(=O)c(-c2cc(F)cc(F)c2)nc2cnc(Oc3ccccc3)nc21
  -30.1%, >57
Cc1ccc(S(=O)(=O)N[C@H]2COC(=O)[C@@H](C)COC(=O)C/C=C\[C@H]2C)cc1
  4.7%[8 µM], nt
COCCCN1CC23C=CC(O2)C(C(=O)O)C3C1=O (centres undefined)
  -3.1%, >57
CCCn1cnc2c(cnn2-c2ccc(F)cc2)c1=O
  4.2%, >57
Cc1ccc(NC(=O)CS(=O)CC(=O)N(c2ccccc2)C(C)C(=O)NC2CCCC2)cc1 (centres undefined)
  -27.9%, >57
COP(=O)(OC)OC(c1ccc(Cl)cc1)P(=O)(OC)OC (centres undefined)
  -2.6%, nt
COc1ccc(-c2nc(C#N)c(N3CCCCCC3)o2)cc1OC
  -13.7%, >57
CC1(C)[C@@H]2CC[C@]1(C)[C@@H](OC(=O)/C=C\c1ccccc1)C2
  ?, >57
Cc1c(C(=O)NCCN2CCOCC2)sc2nc(-c3ccc(F)cc3)cn12
  -13.9%, >57
O=C(COc1ccc(OCc2ccccc2)cc1)NC1CCOC1=O (centres undefined)
  1.3%, >57
COc1ccc(C2N3CC4(C)CN2CC(C)(C3)C4O)cc1 (centres undefined)
  4.5%, >57
O=C(NCc1ccccc1)c1noc2c1CCCCC2
  -0.6%, >57
COc1ccccc1NC(=O)CC1C(=O)Nc2c1c(=O)n(C)c(=O)n2C (centres undefined)
  -2.6%, >57
CCCc1nc2oc3c(N4CCNCC4)ncnc3c2c2c1CCCC2
  7.8%, >57
O[C@H]([C@H](O)[C@@H](O)c1nc2ccccc2[nH]1)[C@@H](O)c1nc2ccccc2[nH]1
  -10.5%[8 µM], >57
Cc1nnc(C)n1/N=C/c1ccc(C(C)C)cc1
  3.6%, >57
Cc1ccc(NC2=CC(=O)CCC2)cc1C
  5.7%, >57
CCOC(=O)C1=C(CS(=O)(=O)c2ccccc2)NC(=O)NC1c1ccccc1 (centres undefined)
  -3.4%, >57
c1ccc([C@H](CCN2CCCC2)c2ccccn2)cc1
  9.6%[8 µM], >57
O=C(Cc1ccccc1)N1CCN(Cc2c[nH]c3ccccc23)CC1
  -1.2%, >57
COc1ccc(-n2c(=O)cnc3cnc(Oc4cccc(Cl)c4)nc32)cc1
  ?, >57
COc1ccc(CNc2ncncc2-c2ccccc2C(F)(F)F)c(OC)c1
  4.8%, >57
N#Cc1ccc(CN2CCCC3(CCNCC3)C2)cc1
  ?, >57
Cc1cc(C(=O)O)c(S(C)(=O)=O)s1
  4.7%, >57
CC(C)n1nnnc1CN1CCN(C)CC1
  -7.0%, >57
CC(C)(C)c1ccc(OCC(=O)NCc2ccco2)cc1
  -19.2%, >57

Bioassay records (PubChem BioAssay)
